# From PubChem
# RecA intein inh – blocks M. tuberculosis RecA intein splicing | AID 2221 | P9WHJ3 | cell-free RecA intein splicing, fluorescence | inhibition, %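 (about 9 µM by stock and volumes)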 | 0.75% of 290,000 active; in the data active = inhibition above about 30%; inconclusive = no clear call, values can overlap the other calls;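 also: 0% = vehicle wells and 100% = reference inhibitor control wells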
# Target sequence (P9WHJ3 whole entry, looked up): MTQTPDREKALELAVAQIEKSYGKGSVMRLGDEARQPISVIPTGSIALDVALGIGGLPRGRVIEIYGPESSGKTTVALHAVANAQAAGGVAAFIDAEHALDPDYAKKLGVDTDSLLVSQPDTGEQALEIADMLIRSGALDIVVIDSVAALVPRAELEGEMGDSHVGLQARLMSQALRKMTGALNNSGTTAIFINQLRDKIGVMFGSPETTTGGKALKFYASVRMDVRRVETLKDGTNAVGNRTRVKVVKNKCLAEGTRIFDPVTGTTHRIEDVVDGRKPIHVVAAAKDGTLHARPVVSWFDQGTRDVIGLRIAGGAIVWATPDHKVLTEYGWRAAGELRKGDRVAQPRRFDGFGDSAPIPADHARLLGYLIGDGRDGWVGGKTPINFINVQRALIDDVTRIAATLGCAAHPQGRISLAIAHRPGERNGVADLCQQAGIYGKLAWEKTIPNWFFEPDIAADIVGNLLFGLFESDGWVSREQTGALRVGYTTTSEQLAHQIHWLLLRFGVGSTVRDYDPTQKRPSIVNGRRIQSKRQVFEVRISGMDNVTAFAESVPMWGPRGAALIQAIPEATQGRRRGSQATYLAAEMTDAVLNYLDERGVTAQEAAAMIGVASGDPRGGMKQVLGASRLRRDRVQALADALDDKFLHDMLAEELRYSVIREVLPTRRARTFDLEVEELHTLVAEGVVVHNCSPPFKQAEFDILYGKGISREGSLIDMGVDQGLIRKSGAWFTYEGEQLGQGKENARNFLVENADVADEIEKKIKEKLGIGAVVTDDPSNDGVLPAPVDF
# Arbovirus anti – blocks arbovirus infection; arbovirus infection cell-based antiviral screen; inhibition, % at 10 µM; 0.37% of 200,000 active; AID 1251;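 active = inhibition from about 30%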;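 also: bluetongue infection of BSR cells; cell survival read as ATP light after 72 h; 0% = infected wells without compound and 100% = uninfected wells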
# Mtb betalactam – beta-lactam sensitization of Mtb H37Rv; M. tuberculosis H37Rv growth with meropenem, percent inhibition; hits of this screen are not shown here; inhibition, % at 25 µM; 0.27% of 330,000 active;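 active = about 74% or more and at least 40 points above the plate without the antibiotic, then above 30% in a dose series; inconclusive = first-round hits that could not be retested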;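 also: growth measured after seven days incubation then overnight dye step; 0% = bacteria only wells and 100% = bacteria with antibiotic; twin plates without the antibiotic show which effects depend on it; some results filed as inactive read as strong as hits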
# Mtb growth – M. tuberculosis H37Rv growth inhibitors, H37Rv strain (AID 1626); M. tuberculosis H37Rv growth inhibition; higher % means a stronger effect; inhibition, % at 10 µM, or IC50 in µM where a hit was titrated; 0.95% of 220,000 active;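 active = confirmed in a dose series; inconclusive = inhibition above 80% but not taken into the dose series; inactive = below 80% or under 30% at every dose of the series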;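 also: bacteria incubated seven days before Alamar blue readout; 0% = bacteria only wells and 100% = bacteria with antibiotic wells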
# YopH PTP inh – inhibitors of Yersinia enterocolitica YopH tyrosine phosphatase. fluorescence Ex485/Em525. inhibition, %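 (about 10 µM by stock and volumes)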. 0.16% of 140,000 active. AID 898;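 active = inhibition of 50% or more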;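 also: controls were vehicle for no effect and minimum signal wells for full effect; inactives centre near -20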
# Arbovirus anti repeat – second read-out of Arbovirus anti, no call of its own (marks repeat the call); inhibition, %; measured here: 10K subset replicate screen; many hits read low in the repeat;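 first of two repeat runs on a subset; 0% = infected and 100% = uninfected wells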
# The depositor's hits bear a star; ? = inconclusive; / = not tested or not shown. A portion of the library; the hit share may differ from the screen's.
SMILES,RecA intein inh,Arbovirus anti,Mtb betalactam,Mtb growth,YopH PTP inh,others
Cc1c(NC(=O)CSc2nc3c(cnn3-c3ccccc3)c(=O)[nH]2)c(=O)n(-c2ccccc2)n1C,-2.4,2,0,-6%,-18,
Cc1ncc(N=Nc2ccccc2Cl)c(-c2ccccc2)n1,-1.9,-5,-2,3%,-25,
Cc1ccc(CNC(=O)CO/N=C/c2ccc(C(C)(C)C)cc2)cc1,1.6,2,2,8%,-20,
Cc1c(C(=O)O)oc2ccc(S(=O)(=O)NCc3ccc(F)cc3)cc12,-1.7,4,-15,-2%,-27,
O=C(COc1cc(F)ccc1[N+](=O)[O-])Nc1ccc(N2CCOCC2)cc1,-1.9,2,24,1%,/,
CCOC(=O)C(C)n1cnc2c(oc3ccccc32)c1=O (stereo not drawn),2.1,1,-1,-5%,1,
CCC(C(=O)Nc1cc(Cl)c(OC)cc1OC)c1ccccc1 (stereo not drawn),1.8,-3,-4,-4%,/,
COc1cccc(C(O)Cc2nc3ccccc3n2C)c1OC (stereo not drawn),-3.8,-1,-6,4%,/,
O=C(NCC(c1cccs1)N1CCOCC1)C1CCN(S(=O)(=O)c2c(Cl)cccc2Cl)CC1 (stereo not drawn),-4.6,/,-14,/,/,
Cc1ccc(C(=O)NCC(=O)OCC(=O)c2cc(C)n(Cc3ccco3)c2C)cc1,6.0,5,3,1%,18,
COc1ccc(NC(=O)C2CCCN2S(=O)(=O)c2ccc(C)cc2)cc1 (stereo not drawn),1.1,-1,-8,1%,4,
CC(C)(CN1CCCC1)NC(=O)C1CCC(=O)N(CCCN2CCOCC2)C1 (stereo not drawn),-0.2,/,-3,/,/,
Cc1ccc(N(C(C)C(=O)N2CCOCC2)S(C)(=O)=O)cc1C (stereo not drawn),-3.3,1,-2,4%,/,
COc1ccc2c(c1)CCCC21SC(NC(C)=O)=NN1C(C)=O (stereo not drawn),-1.3,1,4,-3%,/,
CCCOC(=O)CCc1n[nH]c(=O)[nH]c1=O,-0.3,0,-3,9%,-33,
Cc1noc(C)c1COC(=O)COc1ccc2c(C)cc(=O)oc2c1,-0.3,-1,-7,-16%,-24,
O=C(COC(=O)C1(c2ccccc2F)CCCC1)N1CCN(C(=O)c2ccco2)CC1,1.6,8,6,-2%,-42,Arbovirus anti repeat=1
CCOC(=O)N1CCC(N2C(=O)c3ccccc3C2Nc2ccc(Cl)cn2)CC1 (stereo not drawn),7.7,-30,-1,9%,-45,
Cc1cc(C)n(C(=O)c2ccc([N+](=O)[O-])cc2[N+](=O)[O-])n1,-3.9,-1,100,7.1µM*,-9,
COC(=O)c1ccccc1NC(=O)c1nc2nc(C)cc(C(F)F)n2n1,-0.8,4,0,-1%,-3,
CCOC(=O)C1=C(C)N(c2ccccc2)C(=O)NC1c1cccc([N+](=O)[O-])c1 (stereo not drawn),5.7,12,3,12%,-20,
Cc1ccccc1NS(=O)(=O)c1ccc(OCC(=O)NCc2cccnc2)cc1,-4.6,4,2,-7%,-8,
O=C(CNc1ccccc1)c1ccc([N+](=O)[O-])cc1,4.8,-7,0,8%,-18,
O=C(CCN1C(=O)c2ccccc2C1=O)NC1=NCCS1,-3.9,2,9,-3%,-50,
O=C(CCNS(=O)(=O)c1cccc2nonc12)N1CCN(c2cccc(Cl)c2)CC1,1.6,-14,2,7%,-6,
COc1cc2c(cc1OC)CN(C(=O)c1ccc(Br)o1)CC2,/,/,10,4%,/,
COc1ccccc1CNc1n[nH]c(NCc2ccccc2OC)n1,-0.8,2,40,4%,-43,
COC(=O)c1sccc1NC(=O)/C=C\c1ccc(Cl)cc1Cl,/,-20,/,-2%,-1,
CCOC(=O)C1CCCN(C(=O)C2CCCN(S(C)(=O)=O)C2)C1 (stereo not drawn),-2.5,4,-1,0%,6,
OCC1CCCC(n2cnc3c(=S)nc[nH]c32)O1 (stereo not drawn),-1.5,/,-6,10%,/,
Cc1ccccc1N1CCN(CC(=O)Nc2nccs2)CC1,0.7,/,6,/,/,
O=C(NCC1CCCO1)c1cccc(-n2cnnn2)c1 (stereo not drawn),0.1,5,-6,-5%,-50,
C/C(=N\NC(=O)COc1ccc([N+](=O)[O-])cc1)C(C)(C)C,0.3,81*,1,-3%,-10,
Cc1ccc(OCCSc2nc3ncnc(N)c3[nH]2)cc1,1.9,3,1,3%,/,
COc1ccc(Sc2nnc(-c3ccccc3)cc2C#N)cc1,1.9,-3,-6,-4%,-25,
CCCCn1c(N)c(Br)c(=O)[nH]c1=O,2.8,/,-9,-3%,/,
CCC(NC(=O)c1ccccc1NC(=O)c1ccco1)C(=O)NNC(=O)c1ccc(OC)cc1 (stereo not drawn),3.7,6,-4,5%,-6,
CSc1cccc(NC(=O)c2cnn3ccccc23)c1,1.8,/,-3,-5%,/,
Cc1c(CCOC(=O)c2ccc(N3CCOCC3)c([N+](=O)[O-])c2)sc[n+]1CC#N,0.4,/,-5,8%,/,
O=C(COc1ccc(F)cc1)N(Cc1cccs1)C1CCS(=O)(=O)C1 (stereo not drawn),-2.8,/,-3,/,/,
CCCCN(CC)Cc1c(C)[nH]c2c(ccc3ccccc32)c1=O,-0.7,/,-4,/,/,
O=C(O)c1ccc(/C=N/NC(=S)NCc2ccccc2)cc1,-6.3,2,0,0%,/,
CC1CCc2c(sc(NC(=O)COC(=O)C3CCCO3)c2C#N)C1 (stereo not drawn),-2.2,2,-3,3%,/,
O=C(OCC#CCSc1nnc(-c2ccc(Br)cc2)o1)c1cccs1,8.0,-2,100,<0.2µM*,-17,
CC(=O)Nc1ccc(S(=O)(=O)N2C(C)CCCC2C)cc1 (stereo not drawn),0.6,/,-6,/,/,
Cc1cc2oc(=O)cc(CN3CCN(C/C=C/c4ccccc4)CC3)c2cc1O,1.2,-12,92,6%,33,
Cc1ccc(/C=C/C(=O)N2CCN(S(=O)(=O)c3c(C)c(C)cc(C)c3C)CC2)o1,14,1,0,-2%,0,
COc1ccc(Cn2c(-c3ccc(C)cc3)c[n+]3ccccc23)cc1,2.4,16,0,7%,-34,
Cc1c(Br)c([N+](=O)[O-])nn1CC(=O)N1CCCc2ccccc21,-3.4,0,-2,4%,-18,
CN(C/C=C/C#CC(C)(C)C)Cc1cccc2ccccc12,5.7,/,-1,-2%,/,

# Arranged by formula weight (low to high): part of the list above.
SMILES,RecA intein inh,Arbovirus anti,Mtb betalactam,Mtb growth,YopH PTP inh,others
CC(=O)Nc1ccc(S(=O)(=O)N2C(C)CCCC2C)cc1 (stereo not drawn),0.6,/,-6,/,/,
Cc1ccc(/C=C/C(=O)N2CCN(S(=O)(=O)c3c(C)c(C)cc(C)c3C)CC2)o1,14,1,0,-2%,0,
O=C(OCC#CCSc1nnc(-c2ccc(Br)cc2)o1)c1cccs1,8.0,-2,100,<0.2µM*,-17,

# Further structures follow.
SMILES,RecA intein inh,Arbovirus anti,Mtb betalactam,Mtb growth,YopH PTP inh,others
O=P(O)(CCCP(=O)(O)CCc1ccccc1)CCc1ccccc1,-6.3,/,3,-6%,/,
CCOc1ccc(C2/C(=C(\O)c3cccc(OC)c3)C(=O)C(=O)N2c2cc(C)on2)cc1OC (stereo not drawn),-3.9,4,-4,-10%,-38,
COC(=O)c1[nH]c2ccc(C)cc2c1NC(=O)CN1CCCC(C)(C)C1,2.1,-24,5,6%,36,
O=C(Nc1ccc(S(=O)(=O)N2CCCC2)cc1)c1ccc(OCC2CCCO2)cc1 (stereo not drawn),-1.3,1,24,4%,/,
O=c1c(-c2ccccc2)coc2c(CN3CCCCC3)c(O)ccc12,-3.2,/,-3,/,/,
Cc1ccc2oc(C(=O)NCc3ccc4c(c3)OCO4)c(C)c2c1,/,-8,3,2%,3,
Cc1ccc2nc3c(c(Nc4cccc(O)c4)c2c1)CCC3,2.8,/,9,/,/,
CCOc1ccc(C(C)C)cc1S(=O)(=O)Nc1ccc(Cl)cn1,-5.2,8,-12,-3%,19,
O=C(N/N=C/c1c(O)n(Cc2ccc(F)cc2)c(=S)[nH]c1=O)c1ccncc1,-6.9,/,/,?,/,
O=C(c1snnc1-c1ccccc1)N1CCOCC1,-2.5,-2,19,0%,/,
O=C(Nc1ccccc1[N+](=O)[O-])c1cncc(Br)c1,-0.1,2,2,-12%,/,
C/C(=N\Nc1cc(N2CCOCC2)nc(C)n1)c1cccc([N+](=O)[O-])c1,0.1,27,0,3%,/,
CCn1c(S(=O)(=O)O)nc2ccccc21,3.6,/,0,2%,/,
COCc1c(C#N)c(NCCc2ccc(F)cc2)nc(C)c1[N+](=O)[O-],-1.1,-3,-2,14%,-10,
CCSc1ncccc1-c1nc2ccccc2[nH]1,0.9,-7,0,-11%,9,
CN(C)c1ccc(N=Nc2cccc3ccoc23)cc1,20,/,83,0%,/,
C=CCNC(=O)C1(S(=O)(=O)c2ccccc2)CC=CC1,0.9,/,-8,/,/,
O=C(NNC(=O)c1ccncc1)Nc1ccc([N+](=O)[O-])cc1,-1.9,6,9,36%,/,
COc1ccc(NC(=O)/C(C#N)=C/c2c(C)nn(-c3ccc(F)cc3)c2Cl)cc1Cl,3.6,1,-1,1%,-21,
COCc1cc(=O)[nH]c(Nc2nc3ccccc3o2)n1,16,-26,95,?,-24,

# An excerpt from further up:
SMILES,RecA intein inh,Arbovirus anti,Mtb betalactam,Mtb growth,YopH PTP inh,others
O=C(COc1ccc(F)cc1)N(Cc1cccs1)C1CCS(=O)(=O)C1 (stereo not drawn),-2.8,/,-3,/,/,
CCCCN(CC)Cc1c(C)[nH]c2c(ccc3ccccc32)c1=O,-0.7,/,-4,/,/,
O=C(O)c1ccc(/C=N/NC(=S)NCc2ccccc2)cc1,-6.3,2,0,0%,/,
CC1CCc2c(sc(NC(=O)COC(=O)C3CCCO3)c2C#N)C1 (stereo not drawn),-2.2,2,-3,3%,/,

# (further entries)
SMILES,RecA intein inh,Arbovirus anti,Mtb betalactam,Mtb growth,YopH PTP inh,others
CCC(=O)N1CCN(c2nc3ccccc3s2)CC1,-11,5,2,-3%,-16,
CCNC(=O)NC(=O)CSc1ccc2ccccc2c1,-5.0,2,7,8%,/,
COc1ccc(Br)cc1/C=C/c1ccc2cccc(O)c2n1,1.6,/,86,/,/,
c1ccc(C2NCCc3[nH]cnc32)cc1 (stereo not drawn),0.2,/,1,/,/,
CCN(CC)C(=O)C1CCN(S(=O)(=O)c2ccc3oc4ccccc4c3c2)CC1,-2.1,21,2,-1%,-42,
O=C(Nc1nc(-c2ccncc2)cs1)c1ccc(F)cc1,-0.5,-12,-4,3%,/,
COc1ccc(-n2c(Cc3cccn3C)nnc2SCC(=O)Nc2ccc(Cl)cc2)cc1,13,18,4,7%,-19,Arbovirus anti repeat=3
COc1ccc(S(=O)(=O)N(C)CC(=O)Nc2ccccc2OC)cc1C,21,-10,-5,5%,-36,
COc1ccc(Nc2oc(-c3ccco3)nc2S(=O)(=O)c2ccc(F)cc2)cc1,6.0,-19,0,5%,-17,
COc1ccccc1NC(=O)CSc1nnc(-c2ccoc2C)n1C,-0.4,/,4,/,/,

# The last 2 records of the part before come first, to join the parts.
SMILES,RecA intein inh,Arbovirus anti,Mtb betalactam,Mtb growth,YopH PTP inh,others
COc1ccc(Nc2oc(-c3ccco3)nc2S(=O)(=O)c2ccc(F)cc2)cc1,6.0,-19,0,5%,-17,
COc1ccccc1NC(=O)CSc1nnc(-c2ccoc2C)n1C,-0.4,/,4,/,/,
COCCCNCCOCCSc1ccc(Cl)cc1,3.2,-24,2,-7%,-17,
COc1ccc(CNC(=O)/C(C#N)=C/c2cccc(OC)c2OC)cc1,1.3,/,1,/,/,
CCOC(=O)c1sc(NC(=S)NC(=O)c2ccco2)nc1C,0.4,-4,4,51%,-23,
O=C(CSc1nnc(-c2ccco2)n1Cc1ccccc1)c1ccccc1,7.8,3,15,8%,-16,
COC(=O)c1ccc(NC(=O)CSc2nnc(CNc3ccc(F)cc3)n2C)cc1,4.2,-6,-3,4%,-9,
COc1nc(Oc2ccc(C(=O)O)cc2)nc(Oc2ccc(C(=O)O)cc2)n1,-2.5,3,-6,-6%,-145,
CC(C)(C)NC(=O)C(c1cccnc1)N(C(=O)c1csnn1)c1ccccc1 (stereo not drawn),1.4,2,3,1%,/,
CCOC(=O)c1ccc(S(=O)(=O)N2CCN(CCC#N)CC2)cc1,-1.5,6,1,-7%,-38,Arbovirus anti repeat=6
CN(C)C(=O)CSc1nnc(NC(=O)CCc2ccccc2)s1,-0.8,/,1,-11%,/,
O=C(CNC(=O)c1ccccc1F)NNC(=O)c1ccccc1O,-3.8,/,-9,/,/,
CCc1ccc(OCC(=O)N(Cc2ccccc2)C2CCS(=O)(=O)C2)cc1 (stereo not drawn),1.8,/,-1,/,/,
Cc1c(C)c2ccc(OC(C)C(=O)N3CC[C@@]4(O)CCCC[C@H]4C3)c(C)c2oc1=O (stereo partly drawn),2.0,/,0,/,/,
O=C(c1cc(Cl)ccc1[N+](=O)[O-])N1CCc2ccccc2C1,-2.3,11,8,3%,-22,
Cc1ccc(OCC(=O)N/N=C/c2ccc([N+](=O)[O-])o2)cc1,9.7,-18,100,?,-25,
